CHT block – human CHT choline transport inhibition; AID 488975; 0.86% of 310,000 active; Q9GZV3; CHT-expressing cells, membrane potential dye, choline response; stronger effect = lower value; B-score at 10 µM;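 active means B-score over 3 SD under the library average, and starting fluorescence ratio not unusually high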;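 further: choline stimulus applied at its EC90 after an EC20 pre-addition; B-score computed on integrated fluorescence ratio after choline addition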
Target sequence (Q9GZV3 whole entry, looked up): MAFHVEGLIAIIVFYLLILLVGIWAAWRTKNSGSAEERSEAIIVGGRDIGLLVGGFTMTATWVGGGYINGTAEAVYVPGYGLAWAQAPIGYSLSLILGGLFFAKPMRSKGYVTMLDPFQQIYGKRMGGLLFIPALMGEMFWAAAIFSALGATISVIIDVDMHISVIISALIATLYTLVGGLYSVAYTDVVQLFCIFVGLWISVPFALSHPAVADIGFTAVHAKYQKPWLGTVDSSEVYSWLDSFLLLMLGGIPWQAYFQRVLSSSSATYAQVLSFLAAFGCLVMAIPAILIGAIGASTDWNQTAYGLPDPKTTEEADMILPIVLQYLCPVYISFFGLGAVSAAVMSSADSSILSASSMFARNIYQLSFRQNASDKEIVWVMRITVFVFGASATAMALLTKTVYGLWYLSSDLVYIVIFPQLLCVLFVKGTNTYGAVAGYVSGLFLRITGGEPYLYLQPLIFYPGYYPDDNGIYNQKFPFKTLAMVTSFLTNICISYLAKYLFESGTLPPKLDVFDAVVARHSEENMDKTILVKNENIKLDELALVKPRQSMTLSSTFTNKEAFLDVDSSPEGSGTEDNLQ
Calls only; i = inactive. A portion of the library, and most or all hits are left out here.

SMILES | CHT block
COc1cc2c(cc1OC)CN(C(=O)CSc1nc(C)cc(C)c1C#N)CC2 | i
COc1ccccc1C(=O)N/N=C/c1cnc2ccccc2n1 | i
Cc1ccc(N2C(=O)c3ccccc3NC2C(C)Cc2ccc3c(c2)OCO3)cc1 (stereo not given) | i
COCCOC(=O)C1=C(C)Nc2nc(C)nn2C1c1ccc(F)cc1 (stereo not given) | i
CC(=O)Nc1ccc(NCC(O)COc2ccccc2)cc1 (stereo not given) | i
O=C(CN1CCN(S(=O)(=O)N2CCOCC2)CC1)Nc1ccc(Cl)c(Cl)c1 | i
O=C(NCCCN1CCOCC1)c1ccc(S(=O)(=O)Nc2ccccc2)cc1 | i
CSc1nnc(CCCCCCCCc2nnc(SC)o2)o1 | i
CCCC(=O)Nc1nn(C)c2nc3ccc(C)cc3cc12 | i
CCN(c1ccccc1)S(=O)(=O)c1ccc(C(=O)NCC(c2cccs2)N(C)C)cc1 (stereo not given) | i
O=C(NCC1CCCO1)c1ccc(-c2cccc(C(F)(F)F)c2)o1 (stereo not given) | i
O=C(Cn1nnc(-c2ccccc2)n1)NNC(=O)c1ccc(Br)cc1 | i

Gathered by group: those above with an aryl methoxy group.
SMILES | CHT block
COc1cc2c(cc1OC)CN(C(=O)CSc1nc(C)cc(C)c1C#N)CC2 | i
COc1ccccc1C(=O)N/N=C/c1cnc2ccccc2n1 | i

(cont.)
SMILES | CHT block
Fc1cnc(N2CCOCC2)nc1N1CCOCC1 | i
Cn1c(Br)nc2c1c(=O)n(Cc1ccccc1)c(=O)n2C | i
COc1cccc(C(=O)N/N=C(\CC(C)C)c2ccccc2)c1 | i
N#Cc1cc(S(=O)(=O)N2CCOCC2)ccc1N1CCOCC1 | i
O=C(N/N=C/c1cn(-c2ccccc2)nc1-c1cccnc1)c1cccnc1 | i
CCOC(=O)c1cnc(-c2ccccc2)nc1N1CCOCC1 | i
CS(=O)(=O)N(Cc1ccccc1)c1ccc(C(=O)NC2CCCCC2O)cc1 (stereo not given) | i
COc1ccc(S(=O)(=O)N2CC(O)C[C@H]2C(=O)OCC(=O)N2CCCCCC2)cc1 (stereo not given in full) | i
O=C(O)CC(c1ccccc1)N1C(=O)c2ccccc2C1=O (stereo not given) | i
CCCc1nc2sc3ccccc3c(=O)c2c(=O)n1Cc1ccc(OC)cc1 | i
COc1ccc(Cn2nnnc2C(c2cc3ccc(OC)cc3[nH]c2=O)N2CCC(C)CC2)cc1 (stereo not given) | i
CCN(CC)CCCn1c(SCC(=O)Nc2cccc(F)c2)nnc1-c1ccoc1C | i

Brought forward from above: three compounds, followed by the next part.
SMILES | CHT block
CCCc1nc2sc3ccccc3c(=O)c2c(=O)n1Cc1ccc(OC)cc1 | i
COc1ccc(Cn2nnnc2C(c2cc3ccc(OC)cc3[nH]c2=O)N2CCC(C)CC2)cc1 (stereo not given) | i
CCN(CC)CCCn1c(SCC(=O)Nc2cccc(F)c2)nnc1-c1ccoc1C | i
Cc1cccc(CCNC(=O)c2nnc(Cc3ccc(Cl)cc3)o2)c1 | i
CC(C)=CC1C(C(=O)NCCc2ccccc2)C1(C)C (stereo not given) | i
CCOC(=O)N1CCN(CC(O)COc2c(C)cc(C)cc2C)CC1 (stereo not given) | i
Cc1n[nH]c(C)c1CS(=O)(=O)c1ccccc1 | i
O=C(c1ccco1)N1CCN(C23CC4CC(CC(C4)C2)C3)CC1 | i
COc1ccc(C(=O)OCC2CC(c3ccccc3)N(C)O2)cc1 (stereo not given) | i
Cc1cc(SCC(=O)c2ccccc2)nc(SCC(=O)c2ccccc2)n1 | i
COc1ccc2c(Cl)c(-c3nnc(SCC(=O)c4ccccc4)n3C)sc2c1 | i
CCC(NS(=O)(=O)c1ccc(C)cc1)C(=O)N1CCN(c2ccccn2)CC1 (stereo not given) | i
CCOC(=O)C(C)Sc1ncc(-c2ccc(Cl)cc2)cn1 (stereo not given) | i
CCOC(=O)C(=O)NC(C)CCc1ccccc1 (stereo not given) | i
O=C(Nc1c(F)cc(F)cc1Br)c1cc(-c2ccccc2)on1 | i
O=C(COC(=O)c1n[nH]c(=O)c2ccccc12)c1ccccc1 | i
Cc1cc(NC(=O)/C=C\C(=O)O)c([N+](=O)[O-])cc1C | i
COc1ccc(OCC(=O)Nc2ccccc2N2CCCCC2)cc1 | i
O=C(NNC(=O)c1cc(-c2ccco2)nc2ccccc12)c1ccccc1 | i
Cc1ccc(C(=O)NC2CCN(CC(=O)Nc3cccc([N+](=O)[O-])c3)CC2)cc1 | i
CCOc1ccc(CN(C)CC(=O)NCc2ccccc2Cl)cc1 | i
CCOc1ccc(S(=O)(=O)N/N=C2/CCCC(=O)C2)cc1 | i
COc1ccc(C2NC(=O)C(=O)/C2=C(\O)c2ccc(Cl)cc2)cc1OC (stereo not given) | i
O=c1c(-c2ccc3c(c2)OCCO3)coc2cc(OC3OC(CO)C(O)C(O)C3O)ccc12 (stereo not given) | i
CCC(C)(C)NC(=O)CN(C(=O)c1snc(C(N)=O)c1N)c1ccc2c(c1)OCCO2 | i
COc1ccc(C(=O)NNC(=O)Cc2ccc(Cl)cc2)cc1 | i
COc1ccc(-c2nnc(-c3cc4ccccc4oc3=O)o2)cc1 | i
CCOC(=O)N1CCC(NC(=O)c2cc(S(=O)(=O)N3CCCCC3)ccc2F)CC1 | i
COCCNC(=O)C(c1ccc(OC)cc1)N(C(=O)Cn1nnc2ccccc21)c1cccnc1 (stereo not given) | i
CN(C)c1nc(OCc2ccccc2)c2ncc(=O)[nH]c2n1 | i
CC(C)c1ccc(NC(=O)c2cccnc2)cc1 | i
CCOC(=O)CSc1nnc(NCC(=O)OC)c(=O)[nH]1 | i
O=S1(=O)CCOC[C@H](CC2CCCCC2)N1Cc1ccccc1Br | i
CC1/C(=N/O)CC(c2ccccc2)N(C)C1c1ccccc1 (stereo not given) | i
CCOC(=O)/C(C#N)=C/c1ccc(OCC(=O)Nc2ccccc2)c(OC)c1 | i
CSc1nc2c(c(=O)[nH]1)C(c1cccc(Br)c1)CC(=O)N2 (stereo not given) | i
Cc1ccc(S(=O)(=O)N2CCOC2CNC(=O)C(=O)NCCCN2CCOCC2)cc1 (stereo not given) | i
CCn1c(SCc2nc3sc(C(=O)O)c(C)c3c(=O)[nH]2)nc2ccccc21 | i
O=C1NCN(CCO)CN1 | i
C=CCOc1cccc(CNCc2cccnc2)c1 | i
Cc1csc(NC(=O)CSc2ccc3nnc(-c4ccncc4)n3n2)n1 | i
NC(=O)C1CC(=O)N(c2ccc(OCc3c(F)cccc3Cl)cc2)C1 (stereo not given) | i
Cc1cnc(C(=O)OCC(=O)c2cc(C)n(C)c2C)cn1 | i
O=C1N/C(=N/N=C/c2ccc(F)cc2)SC1c1ccccc1 (stereo not given) | i
O=C(Nc1nc2ccccc2s1)c1ccc(Cl)s1 | i
O=C(NC(Nc1ccccn1)C(Cl)(Cl)Cl)c1ccccc1 (stereo not given) | i
CCOC(=O)c1nnsc1NC(=O)Nc1ccc(OC)cc1 | i
CCCCOP(=O)(OCCCC)C(Nc1ccccc1)c1ccc2c(c1)OCO2 (stereo not given) | i
CC(C)CCNC(=O)c1onc(CSc2ccccn2)c1C(=O)NCCC(C)C | i
Nc1cc(C(=O)O)c(Oc2ccc(Cl)cc2Cl)cc1C(=O)O | i
CCSc1ncnc2c1sc1nc(-c3ccco3)c3c(c12)CC(C)(C)OC3 | i
O=C(CCS(=O)(=O)c1ccccc1)OCC(=O)N1CCN(S(=O)(=O)c2ccc(Cl)cc2)CC1 | i
CCOC(=O)c1ccc(NC(=O)Nc2ccn(C)n2)cc1 | i
Cc1ccc(S(=O)(=O)N2CCN(C(=O)CCC(=O)NCCc3ccc(F)cc3)CC2)cc1 | i
N=c1oc2ccc3ccccc3c2cc1-c1nc(-c2ccccc2)cs1 | i
COc1ccc(S(=O)(=O)N2CCCOC2CNC(=O)C(=O)NCc2ccco2)cc1 (stereo not given) | i
CN(Cc1nc2c(s1)CCCC2)C(=O)CCc1nnc(-c2ccc3c(c2)OCO3)o1 | i
CCOC(=O)COc1ccccc1/C=C1\NC(=O)NC1=O | i
CN(C)S(=O)(=O)n1cnc2ccccc21 | i
CN(C)c1ccc(N2C(=O)CC(c3ccccc3)CC2=O)cc1 | i
Cc1nn(CC(=O)N2CCCc3ccccc32)c(C)c1[N+](=O)[O-] | i
CN(Cc1ccccc1)C(=O)CSc1nc2ccccc2[nH]1 | i
CS(=O)(=O)c1ccccc1-c1nnc(NC(=O)C2=COCCO2)o1 | i
Later entries:
SMILES | CHT block
Cc1ccccc1NC(=O)CS(=O)(=O)c1cn(CC(=O)N2CCOCC2)c2ccccc12 | i
COc1ccc(S(=O)(=O)N2CCCCCC2)cc1C(=O)NCCOc1ccc(C)cc1 | i
COc1ccc(CCc2nc(C)ccc2O)cc1 | i
O=[N+]([O-])c1ccccc1CN1CCN(c2ncccn2)CC1 | i
O=C(CN1CCc2ccccc21)NN1CC(=O)N(c2ccc(Cl)cc2)CC1=O | i
CCOC(=O)N1CCC(N2CCN(CCC(C)C)C(CCO)C2)CC1 (stereo not given) | i
CC(=O)Nc1ccc(Oc2sc(C(=O)c3ccccc3)c(N)c2C#N)cc1 | i
COc1ccc(F)cc1S(=O)(=O)NCCCn1ccnc1 | i
Cc1ccc(CNC(=O)C2CCCN2S(=O)(=O)c2ccc(F)cc2)cc1 (stereo not given) | i
Cc1ccc(NC(=O)c2cc(F)c(F)cc2Cl)nc1 | i
Nn1c(COc2ccccc2)nnc1SCC(=O)O | i
COc1ccccc1N=CC=C1OC(C)(C)C(C)(C)O1 | i

Ordered by molar mass (largest number first): 3 of the compounds above
SMILES | CHT block
COc1ccc(F)cc1S(=O)(=O)NCCCn1ccnc1 | i
COc1ccccc1N=CC=C1OC(C)(C)C(C)(C)O1 | i
COc1ccc(CCc2nc(C)ccc2O)cc1 | i

The results go on:
SMILES | CHT block
Cc1cc(C)c2c(CCl)cc(=O)oc2c1 | i
Cc1cc(=O)oc2cc(Nc3ccccc3)ccc12 | i
CC(C)(C)c1ccc(/C=C/C(=O)Nc2ccncc2)cc1 | i
COc1ccc2c(c1)C=Cc1ccccc1O2 | i
S=C(NCCc1ccccc1)N/N=C/c1ccc(Cl)cc1 | i
O=C(COc1ccc(Cl)cc1)Nc1cccc(-c2ccc(N3CCOCC3)nn2)c1 | i
Cn1cccc1/C=N/NC(=O)Cc1cccc2ccccc12 | i
Cc1ccc(C(=O)NCCn2c(N)c(C#N)c3nc4ccccc4nc32)cc1 | i
CC(=O)Nc1cccc(NC(=O)CSc2nc(C)c(C)c(C)c2C#N)c1 | i
Cc1cccc(C(=O)NC(=S)N2CCN(C)CC2)c1 | i
COc1ccc(CCNc2ncnc3c2nnn3Cc2ccccc2)cc1OC | i
COc1ccc(S(=O)Cc2ccc(C(=O)N3CCN(C(=O)c4ccco4)CC3)o2)cc1 (stereo not given) | i
O=C1CC(Nc2ccc(N3CCOCC3)cc2)C(=O)N1c1ccccc1F (stereo not given) | i
CC(C)(C)NC(=O)c1ccc(Sc2ccccc2)c([N+](=O)[O-])c1 | i
C/C(=N\NC(=O)CNC(=O)c1ccc2c(c1)OCCO2)c1ccco1 | i
Cc1cccc(N2CN(Cc3cccnc3)CNC2=S)c1C | i
O=C(CCC(=O)Nc1cccc2ccccc12)N/N=C/c1ccco1 | i
CCCOc1ccc(C(=O)NCc2cccnc2)cc1 | i
NC1=NC(=O)/C(=C\C=C\c2ccccc2)S1 | i
Cn1cnnc1SCC(=O)N(Cc1ccc2c(c1)OCO2)C1(C(=O)NC2CCCCC2)CCCC1 | i
CCC(C)N1CCN(C(=O)c2cc(OC)cc(OC)c2)CC1 (stereo not given) | i
CCOCCc1nnc(NC(=O)c2cc(OC)c(OC)c(OC)c2)s1 | i
OC1(c2ccccc2)CCN(Cc2ccccc2)C2CCCCC21 (stereo not given) | i
CCOc1ccc(N2CC(=O)SC2=S)cc1 | i

By substructure, the compounds so far with bromine
SMILES | CHT block
O=C(Cn1nnc(-c2ccccc2)n1)NNC(=O)c1ccc(Br)cc1 | i
Cn1c(Br)nc2c1c(=O)n(Cc1ccccc1)c(=O)n2C | i
O=C(Nc1c(F)cc(F)cc1Br)c1cc(-c2ccccc2)on1 | i
O=S1(=O)CCOC[C@H](CC2CCCCC2)N1Cc1ccccc1Br | i
CSc1nc2c(c(=O)[nH]1)C(c1cccc(Br)c1)CC(=O)N2 (stereo not given) | i

Additional records.
SMILES | CHT block
COC(=O)[C@H](C)NC(=O)Nc1ccc(OC)cc1OC | i
CCOP(=O)(OCC)C(NC(=O)c1ccc(OC)c(OC)c1)c1ccccc1 (stereo not given) | i
O=C(CN1C(=O)c2ccccc2S1(=O)=O)NCc1ccccc1Cl | i
CC(C)COC(=O)c1ccccc1OC(=O)c1ccncc1 | i
CS(=O)(=O)N(CC(=O)N1CCN(c2ccccc2)CC1)C1CCCCC1 | i
O=C(NC(=S)Nc1cc(S(=O)(=O)N2CCOCC2)ccc1N1CCOCC1)C1CCCC1 | i
CC(=O)Oc1ccccc1C(=O)Oc1ccc(/C=N/n2cnnc2)cc1 | i
CCOC(=O)c1ccc(CSc2nncn2N)o1 | i
CCc1nnc(NC(=O)CCC(=O)N2CCN(C3c4ccccc4-c4ccccc43)CC2)s1 | i
CCc1ccc(/C=C2\C(=N)N3N=C(CC(=O)N4CCCCC4)SC3=NC2=O)cc1 | i
CCOC(CCNC(=O)c1cn(C)c(=O)c2c1c1ccccc1n2C)OCC | i
C=C1CCC[C@]2(C)C[C@H]3OC(=O)C(CNC(C)CCCC(C)C)[C@H]3CC12 (stereo not given in full) | i
CCOC(=O)C1CCCN(C(=S)Nc2cccc(Cl)c2C)C1 (stereo not given) | i
COc1ccc(C(=O)N/N=C/c2ccc(OC)c(CSc3ccccn3)c2)cc1 | i
O=c1c2ccccc2[nH]c(=S)n1Cc1cccnc1 | i

Screens as filed in PubChem.
